VACV mCherry inh = vaccinia inhibition (mCherry reporter); 310,000 compounds, 0.63% hits; Vaccinia virus mCherry reporter infection, fluorescence; about a quarter of the inactives have no number; Potency, µM (top dose mostly 36.5 µM), for inactives: at the highest dose activity change, negative = inhibition, most hits filed as inhibitors; active = well fitted inhibition curve with a large enough effect; inconclusive = small, poorly fitted or top-dose-only effect; inactive = no such curve, though single readings can be large or run the other way; tested in A549 cells; further: nearly all actives have a fitted effect of over 35% in size; inactives centre near -10
Vaccinia Venus = inhibitors of vaccinia virus (Venus reporter) | 330,000 compounds, 0.46% hits | AID 720580 | Vaccinia virus Venus reporter expression, fluorescence | Potency, µM (highest dose often 36.5 µM), for inactives: at the highest dose activity change, negative = inhibition, actives largely listed as inhibitors; active means well fitted inhibition curve with a large enough effect; inconclusive means small, poorly fitted or top-dose-only effect; inactive means no such curve, though single readings can be large or run the other way; tested in A549 cells; further: nearly all actives have a fitted effect of over 30% in size; inactives centre near -10
* hit, by the source's call; i = inactive; ? = inconclusive; . = no result given; [ ] = dose if it differs, or a comment. On the % scale 0 is the no-effect control and ±100 the full control effect; potency means the concentration at half of the fitted maximal effect.

1) COc1ccc(NC(=O)c2ccc(COc3ccccc3Br)o2)cc1OC
2) CC(=O)c1ccc(N2CCN(C(=O)c3cc4cc5cc(C)ccc5nc4s3)CC2)cc1
3) Cc1cc(C)c(-c2csc(Cc3nc(-c4cc5ccccc5oc4=O)cs3)n2)cc1C
4) Cc1ccc(S(=O)(=O)CC(=O)Nc2nc(-c3ccccc3)cs2)cc1
5) Cc1cn(C)c(CC(=O)N2CCN(c3ccccc3F)CC2)c1C(=O)O
6) COc1cc(NC(=O)C(CC(C)C)N2Cc3ccccc3C2=O)cc(OC)c1 (stereo not drawn)
Compound | 1 | 2 | 3 | 4 | 5 | 6
VACV mCherry inh | . | -6.3% | -8.5% | . | -9.8% | -2.2%
Vaccinia Venus | ? | 9.2% | -3.1% | ? | -7.7% | -17.1%

7) C=CCn1c(SCc2nc3ccccc3c(=O)[nH]2)nnc1-c1cc2cc(Cl)ccc2o1
8) CC1CN(C(=O)N2CCC(C(=O)NCCCc3ccccc3)CC2)c2cc(Cl)ccc2O1 (stereo not drawn)
9) O=c1c2ccccc2[se]n1-c1ccccc1
10) Cc1ccc(NC(=O)N2CCC(CN3CCCC3)CC2)c(C)c1
11) COc1ccc(-c2nc(CS(=O)CC(=O)NCc3ccc4c(c3)OCO4)c(C)o2)cc1 (stereo not drawn)
12) COc1ccc(C(CNC(=O)c2ccc(N3CCCC3=O)cc2)N(C)C)cc1 (stereo not drawn)
Compound | 7 | 8 | 9 | 10 | 11 | 12
VACV mCherry inh | i | -10.7% | -3.3% | -11.1% | -20.6% | -18.8%
Vaccinia Venus | -13.4% | -13.4% | -8.8% | -19.7% | -8.5% | -9.4%

13) COc1ccc(CN(Cc2cccn2C)S(=O)(=O)c2ccc(C)cc2)cc1
14) O=C(NCC1(N2CCOCC2)CCCCC1)c1ccc(S(=O)(=O)Nc2ccccc2F)cc1
15) COc1ccccc1CNC(=O)COc1ccc(S(=O)(=O)N2CCOCC2)cc1C
16) CCN(CC)CCN(Cc1cc2ccc(C)cc2[nH]c1=O)C(=O)Nc1ccc(Cl)cc1
17) CC(=O)Nc1ccc(N(C(=O)CNC(=O)c2ccco2)C(C(=O)NC2CCCC2)c2ccco2)cc1 (stereo not drawn)
18) Cc1ccc(CC(=O)NCCC(=O)O)cc1
Compound | 13 | 14 | 15 | 16 | 17 | 18
VACV mCherry inh | -7.8%[7.34 µM] | -17.8% | -1.2% | -16.9% | -11.5% | i
Vaccinia Venus | -8.4%[7.34 µM] | -15.1% | -9.4% | -14.0% | -9.4% | -9.3%

19) Cc1onc(-c2ccccc2)c1C(=O)OCC(=O)N(C)c1c(N)n(Cc2ccccc2)c(=O)[nH]c1=O
20) Cc1ccc(S(=O)(=O)N2C[C@H]3C(=O)C[C@@H](c4ccccc4)N(S(=O)(=O)c4ccc(C)cc4)[C@H]3C[C@H]2c2ccc(Cl)cc2)cc1
21) O=C(CNC(=O)c1ccccc1)NCC1COc2ccccc2O1 (stereo not drawn)
22) COc1ccccc1-c1c(C)nn2c(N3CCCCCC3)cc(C)nc12
23) Cc1cccc(CN2[C@@H](CC(C)C)COCCS2(=O)=O)c1
24) CCOC(=O)c1ccc(NC(=O)CCC(CC)C(=O)O)cc1 (stereo not drawn)
Compound | 19 | 20 | 21 | 22 | 23 | 24
VACV mCherry inh | -13.0% | -7.1% | . | ? | -26.9% | .
Vaccinia Venus | -12.6% | -11.8% | -16.8% | ? | -12.3% | -17.1%

25) COc1ccc([N+](=O)[O-])cc1/C=N/NC(=O)CNC(=O)c1cccc(F)c1
26) O=c1oc(-c2ccccc2F)nc2c1cnn2-c1ccccc1
27) Cc1nc2ccn(Cc3cccnc3)c(=O)c2cc1C(=O)N1CCN(c2ccc(F)cc2)CC1
28) CC(=O)Nc1sc(N/N=C\c2ccccc2)nc1-c1cccs1
29) O=C(NC[C@@H]1CCCN2CCCC[C@H]12)c1cnn(-c2nccc(-c3cc4ccccc4o3)n2)c1C1CC1
30) CSc1ccccc1C(=O)C1CCCN(S(=O)(=O)c2c(C)noc2C)C1 (stereo not drawn)
Compound | 25 | 26 | 27 | 28 | 29 | 30
VACV mCherry inh | i | -9.8% | -10.3% | -15.3% | -22.2% | -24.9%
Vaccinia Venus | 0.0% | -12.3% | -5.3% | 2.7% | -11.8% | -16.7%

31) COc1ccc(NC(=O)Cn2nnc3sc4c(c3c2=O)CCC(C)C4)c(OC)c1 (stereo not drawn)
32) COc1cc2c(cc1OC)CN(C(=O)CN1C(=O)c3ccc([N+](=O)[O-])cc3C1=O)CC2
33) Cc1c(Cl)cccc1-n1ncc(C(=O)Nc2ccc3c(c2)OCCO3)c1C1CCN(C(=O)OC(C)(C)C)CC1
34) Cc1cc(=O)n2nc(N3CCC(C(=O)Nc4ccc(C)c(Cl)c4)CC3)sc2n1
35) CN(CC(=O)Nc1c(Cl)cccc1Cl)C(=O)Cc1ccsc1
36) COc1ccccc1NC(=O)N(C)C[C@H]1OCc2cnnn2CCCC(=O)N([C@H](C)CO)C[C@H]1C
Compound | 31 | 32 | 33 | 34 | 35 | 36
VACV mCherry inh | -8.2% | -12.6% | -5.1% | -6.8% | -19.7% | i
Vaccinia Venus | -10.9% | -8.3% | -15.0% | -23.6% | -8.2% | -9.4%

37) C=CC[C@H](CC(=O)NCCO)C(=O)N[C@@H](COC(=O)[C@@H](CC=C)Cc1ccc(F)cc1)Cc1c[nH]c2ccccc12
38) CCc1nc2ccccc2n(CC)c1=O
39) CCc1ccc(NC(=O)Cn2c(=O)oc3cc(S(=O)(=O)N4CCOCC4)ccc32)cc1
40) CCOC(=O)c1ccccc1NC(=O)CSc1ccc(-c2sc(C)nc2C)nn1
41) CCC(=O)Nc1ccc(C(=O)OCc2ccc(Cl)c(Cl)c2)cc1
42) CC(=O)NC(c1ccccc1)c1nc(-c2cccc(C(=O)O)c2)cs1 (stereo not drawn)
Compound | 37 | 38 | 39 | 40 | 41 | 42
VACV mCherry inh | -2.5% | -11.6% | 1.1% | -4.7% | i | 7.1%
Vaccinia Venus | ? | -4.2% | -0.4% | -8.0% | -16.4% | 8.8%

43) Cc1ccc(S(=O)(=O)N2C[C@@H]3[C@H]4CC[C@H](C4)[C@@H]3[C@@H](C)C2CC(=O)c2ccccc2)cc1 (stereo partly drawn)
44) N#CC1=C(N)c2ccccc2CC12CCCCC2
45) CCN1C(=O)[C@H]2[C@@H](c3ccc(-c4cc(C(C)=O)cs4)cc3)N3CCCC[C@@]3(C(=O)OC)[C@H]2C1=O
46) NC(=O)c1ccc2c(=O)n3c(-c4cc(Cl)c(N)c(Cl)c4)csc3nc2c1
47) OCC[C@@H]1C[C@H](O)[C@@H](O)[C@@]2(Cc3ccccc3O2)O1
48) CCCCc1nn2c(=O)cc(COC(=O)c3cccc(NC(=O)COc4ccccc4)c3)nc2s1
Compound | 43 | 44 | 45 | 46 | 47 | 48
VACV mCherry inh | ? | -4.5% | -9.0% | -12.4% | i | -13.2%
Vaccinia Venus | -11.0% | 1.1% | ? | ? | -10.1% | 1.5%

49) COc1cc(/C=C2/S/C(=N/S(=O)(=O)c3ccccc3)NC2=O)c([N+](=O)[O-])cc1OC
50) COc1ccc(CN(Cc2ccccc2)C(=O)CN2CCN(C)CC2)cc1COc1ccc(NC(C)=O)cc1
51) C=CCn1c(SCC#N)nc2cc(Cl)ccc2c1=O
52) COc1ccc(C(O)c2coc3ccc(O)c(CN(C)C)c23)cc1 (stereo not drawn)
53) Cc1ccc(OCCNC(=O)c2cc(-n3cnnc3)ccc2Cl)cc1C
54) CC(=O)c1cccc(Nc2c([N+](=O)[O-])c(=O)oc3ccccc23)c1
Compound | 49 | 50 | 51 | 52 | 53 | 54
VACV mCherry inh | -14.4% | -2.6% | 16.6% | -21.0% | -25.6% | -3.4%
Vaccinia Venus | 9.0% | -19.3% | -18.8% | -11.2% | -18.6% | 8.8%

55) CCN(CC(=O)Nc1ccccc1C(F)(F)F)C(=O)c1ccccc1SCC(=O)N1CCCC1
56) COC(=O)c1c(C)oc2c1cc(NS(=O)(=O)c1c(C)cc(C)cc1C)c1ccccc12
57) CCN(CC)S(=O)(=O)c1ccc(C(=O)NN(C)C2=NS(=O)(=O)c3ccccc32)cc1
58) O=C1CSC(=Nc2cccc(C(=O)O)c2)N1
59) CC(C)CCN(C)C1CCN(S(=O)(=O)c2cccc(C(F)(F)F)c2)CC1
60) O=C(Nc1nnc(-c2cccs2)s1)C1CC1
Compound | 55 | 56 | 57 | 58 | 59 | 60
VACV mCherry inh | -16.4% | -16.0% | -1.4% | i | -19.9% | i
Vaccinia Venus | -10.5% | -14.3% | -3.9% | -15.9% | -2.8% | -6.0%

Some of the entries so far, with two lines to a compound.
Every second line gives: VACV mCherry inh | Vaccinia Venus
(44) N#CC1=C(N)c2ccccc2CC12CCCCC2
→ -4.5% | 1.1%
(45) CCN1C(=O)[C@H]2[C@@H](c3ccc(-c4cc(C(C)=O)cs4)cc3)N3CCCC[C@@]3(C(=O)OC)[C@H]2C1=O
→ -9.0% | ?
(46) NC(=O)c1ccc2c(=O)n3c(-c4cc(Cl)c(N)c(Cl)c4)csc3nc2c1
→ -12.4% | ?
(47) OCC[C@@H]1C[C@H](O)[C@@H](O)[C@@]2(Cc3ccccc3O2)O1
→ i | -10.1%
(48) CCCCc1nn2c(=O)cc(COC(=O)c3cccc(NC(=O)COc4ccccc4)c3)nc2s1
→ -13.2% | 1.5%
(49) COc1cc(/C=C2/S/C(=N/S(=O)(=O)c3ccccc3)NC2=O)c([N+](=O)[O-])cc1OC
→ -14.4% | 9.0%
(50) COc1ccc(CN(Cc2ccccc2)C(=O)CN2CCN(C)CC2)cc1COc1ccc(NC(C)=O)cc1
→ -2.6% | -19.3%
(51) C=CCn1c(SCC#N)nc2cc(Cl)ccc2c1=O
→ 16.6% | -18.8%
(52) COc1ccc(C(O)c2coc3ccc(O)c(CN(C)C)c23)cc1 (stereo not drawn)
→ -21.0% | -11.2%
(53) Cc1ccc(OCCNC(=O)c2cc(-n3cnnc3)ccc2Cl)cc1C
→ -25.6% | -18.6%
(54) CC(=O)c1cccc(Nc2c([N+](=O)[O-])c(=O)oc3ccccc23)c1
→ -3.4% | 8.8%
(55) CCN(CC(=O)Nc1ccccc1C(F)(F)F)C(=O)c1ccccc1SCC(=O)N1CCCC1
→ -16.4% | -10.5%
(56) COC(=O)c1c(C)oc2c1cc(NS(=O)(=O)c1c(C)cc(C)cc1C)c1ccccc12
→ -16.0% | -14.3%
(57) CCN(CC)S(=O)(=O)c1ccc(C(=O)NN(C)C2=NS(=O)(=O)c3ccccc32)cc1
→ -1.4% | -3.9%
(58) O=C1CSC(=Nc2cccc(C(=O)O)c2)N1
→ i | -15.9%
(59) CC(C)CCN(C)C1CCN(S(=O)(=O)c2cccc(C(F)(F)F)c2)CC1
→ -19.9% | -2.8%
(60) O=C(Nc1nnc(-c2cccs2)s1)C1CC1
→ i | -6.0%

The results go on:
61) Cc1cc(Cl)ccc1OCCCC(=O)NN
62) O=C(c1ccccc1)N1CCN=C1c1ccccc1
63) CCOc1ccc(CCNC(=O)c2cc3sc(CC)cc3n2C)cc1OCC
64) CC(=O)c1ccc(NC(=O)CSC2=Nc3ccccc3N=C(c3ccc(F)cc3)C2)cc1
Compound | 61 | 62 | 63 | 64
VACV mCherry inh | -12.5% | -13.9% | -10.9%[7.34 µM] | -11.3%
Vaccinia Venus | -11.6% | -8.5% | -9.8%[7.34 µM] | -12.8%

Hits appear at their usual frequency; any-hit rate near 0.86%.
